CSC inhib = cancer stem cell viability inhibitors, primary screen, luminescence | inhibition, % at 7.5 µM | cancer stem cell-like cells viability | 1.1% of 300,000 active;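 active = mean at 75% or more and at least half the replicates too; inconclusive = mean and replicates disagree; tested in HMLE shEcad cells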;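 note: 0% = median of negative and 100% = median of positive control wells; the first replicate is given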
eIF4H inh = human eIF4H binding inhibitors, primary screen, translation initiation inhibitor project, biochemical, uHTS, fluorescence polarization; 0.94% of 290,000 active; inhibition, % at 35 µM; eIF4H fluorescence polarization binding assay; AID 2012, 2009; Eukaryotic translation initiation factor 4H (Homo sapiens), Q15056;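 active = 50% or more with normal probe brightness, or confirmed in later tests; inconclusive = above 50% with abnormal brightness, or retests that disagree; inactive = below 50% or failed in later tests; about a fifth of its hits are not listed in these tables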;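 note: calls also rest on retests at 20 µM and on dose response follow-up; 0% = protein and probe with vehicle and 100% = probe without protein; strong numbers were not always called active; many hits fall short of the cut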
Yeast UUG start = modulators of yeast start codon fidelity, primary screen, whole organism, S. cerevisiae, single point, plate reader; 0.13% of 350,000 active; activity score, % at 18.7 µM; AID 602363, 2012; S. cerevisiae UUG-firefly luciferase reporter, luminescence/redox ratio;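 active = replicate mean at a twofold rise or more, about +100% in these data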;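 note: firefly luciferase made from a UUG start codon reports start codon fidelity; reporter light over untreated wells divided by growth signal over untreated wells; some hits fall short of that in this replicate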
Env fusion inh = inhibitors of HIV-1 Env-driven cell-cell fusion, primary screen, HeLa-JRFL effector, CEM21 target cells, luciferase. inhibition, % at 12.3 µM. 1.1% of 360,000 active. AID 651610, 2012;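 active = mean replicate inhibition score of at least 50 and every replicate individually at or above 50; inconclusive = only one of the two criteria met; inactive = mean below 50 and not all replicates reaching 50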;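 note: 0% = plate neutral controls and 100% = maraviroc near 300 nM; one replicate is shown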
PABP FP inh = PABP poly(A) RNA binding inhibitors, primary screen, biochemical, fluorescence polarization, uHTS; Polyadenylate-binding protein 1 (Homo sapiens), P11940; inhibition, % at 35 µM; 1% of 290,000 active;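 active = 50% or more with normal probe brightness, or confirmed in later tests; inconclusive = above 50% with abnormal brightness, or retests that disagree; inactive = below 50% or failed in later tests; about a fifth of its hits are not listed in these tables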;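 note: calls also rest on retests at 20 µM and on dose response follow-up; controls were probe without protein and protein plus probe with vehicle; some compounds called inactive have numbers as strong as hits; many hits fall short of the cut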
Target sequence (P11940 whole entry, looked up): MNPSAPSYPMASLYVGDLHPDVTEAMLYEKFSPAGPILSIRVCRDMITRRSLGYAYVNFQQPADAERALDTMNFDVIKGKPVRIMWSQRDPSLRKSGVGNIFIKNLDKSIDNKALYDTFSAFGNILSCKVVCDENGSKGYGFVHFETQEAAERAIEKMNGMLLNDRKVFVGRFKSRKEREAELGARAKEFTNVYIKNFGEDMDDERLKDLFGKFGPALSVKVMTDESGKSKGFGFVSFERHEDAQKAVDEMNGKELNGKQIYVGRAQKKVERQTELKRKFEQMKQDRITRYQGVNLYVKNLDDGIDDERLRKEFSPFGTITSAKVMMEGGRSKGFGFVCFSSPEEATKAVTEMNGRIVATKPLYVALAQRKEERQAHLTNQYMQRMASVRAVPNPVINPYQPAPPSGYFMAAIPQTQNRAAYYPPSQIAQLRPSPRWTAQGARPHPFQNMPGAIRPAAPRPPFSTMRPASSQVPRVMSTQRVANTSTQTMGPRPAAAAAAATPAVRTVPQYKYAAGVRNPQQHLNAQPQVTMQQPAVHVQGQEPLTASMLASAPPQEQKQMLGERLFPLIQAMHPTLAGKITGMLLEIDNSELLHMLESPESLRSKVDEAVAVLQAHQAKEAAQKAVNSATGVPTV
MT1-MMP act inh = blockers of MT1-MMP proenzyme processing, primary screen, HT1080 RFP-PRO-GFP cells, GFP/RFP fluorescence; 0.061% of 360,000 active; Matrix metalloproteinase-14 (Homo sapiens), P50281; GFP/RFP ratio change, % at 20 µM; GFP/RFP ratio fluorescence, overnight; percent of plate control window, DMSO zero;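 active = GFP/RFP ratio change of at least 30% with cell ATP level not reduced by more than half and red fluorescence within 50% of control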; note: strong numbers were not always called active
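Material – HT1080 RFP-PRO-GFP cells · Control set – DMSO wells and RFP-L50D-GFP cells · Incubation – overnight cell settling, then overnight compound exposure, 37 °C, 5% CO2 · Compound dosing – single-point 20 µM compound, 1% DMSO · Read-out – GFP/RFP fluorescence ratio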
Rce1 inhib = yeast Rce1p protease inhibitors, primary screen, biochemical, fluorescence, cell-free homogeneous. CAAX prenyl protease 2 (Saccharomyces cerevisiae (strain ATCC 204508 / S288c)), Q03530. yeast membranes, quenched prenylated peptide cleavage fluorescence. calls only. 0.27% of 290,000 active. AID 2563, 2010;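 active = fall in fluorescence gain of 50% or more versus controls, with final raw signal at or below 3038400; inconclusive = same 50% fall but final raw signal above 3038400; inactive = fall in fluorescence gain under 50%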;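 note: plate controls were neutral control wells for no effect and wells lacking membranes for full effect; tested at 10 µM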
MT1-MMP act inh RFP = further read-out of MT1-MMP act inh, marked with its call; RFP signal change, %; measured here: RFP expression control read;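 0 = vehicle wells; hits needed this value within 50% of zero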
Active calls of the source: *; i = inactive; ? = inconclusive; · = no result given; + = active, no number; & = joins results of further samples.

SMILES | CSC inhib | eIF4H inh | Yeast UUG start | Env fusion inh | PABP FP inh | MT1-MMP act inh | MT1-MMP act inh RFP | Rce1 inhib
COC(=O)c1c(C)[nH]c(C(=O)CN(C)CC(=O)Nc2cccc(F)c2)c1C | -4 | · | 0 | · | · | 3 | 2 | ·
CCOc1ccc(C(=O)NN2C(=S)NC(C)(C)C=C2C)cc1 | 3 | -2 | · | -7 | 2 | -2 | 0 | i
Cc1ccccc1CNC(=O)c1ccccc1C | -12 | -6 | -4 | · | 0 | 0 | 1 | i
COc1ccc([C@@H]2[C@H]3CN(C(C)=O)CC=C3C(C#N)=C(N)C2(C#N)C#N)c2ccccc12 | · | 38 | -9 | · | 45 | -6 | 6 | i
CC(=O)CC(C)(C)Nc1nc2cc([N+](=O)[O-])ccc2o1 | -3 | 2 | -12 | 5 | 16 | 2 | -4 | i
Cc1csc(NC(=O)CSc2nnc(Cc3cccn3C)n2CCc2ccccc2)n1 | -18 | -9 | 2 | -17 | -15 | 2 | -3 | ·
COc1ccc(C)cc1S(=O)(=O)N(C)CC(=O)Nc1ccccc1 | -1 | -12 | -11 | · | -2 | -2 | -1 | i
O=C(CCNC(=O)C1CCN(S(=O)(=O)c2ccc(F)cc2)CC1)NCc1ccccc1Cl | 6 | -13 | 8 | -4 | 4 | -1 | -1 | i
COc1ccc(CC(=O)N(C)CC(=O)Nc2c(C)cccc2C)cc1S(=O)(=O)N1CCOCC1 | · | · | -17 | -17 | · | 9 | 1 | ·
O=C(c1cc2ccccc2oc1=O)N1CCN(c2ccc(N3CCOCC3)nn2)CC1 | 4 | -3 | -17 | 7 | -11 | 0 | 2 | i
CC(C)CC(=O)Nc1cccc2c1C(=O)N(c1ccccc1)C2=O | -2 | 2 | · | · | -6 | -10 | -5 | i
O=C(CSc1nc2ccccc2o1)N1c2ccccc2Sc2ccccc21 | 0 | 5 | -17 | · | -4 | -1 | -3 | i
CCC(NS(=O)(=O)c1cn(C)nc1C)c1ccccc1 (stereo unspecified) | -10 | -2 | -15 | -2 | -2 | 0 | 3 | i
COc1ccc(CNc2ncc(-c3ccccc3)n2C)c(OC)c1OC | -9 | 1 | -15 | 4 | 2 | -3 | 0 | i
CC(=O)Nc1ccc(NC(=O)CN(c2ccc([N+](=O)[O-])cc2)S(=O)(=O)c2ccccc2)cc1 | -11 | -5 | 14 | -17 | 1 | 2 | 1 | i
COc1cc(NS(=O)(=O)c2ccc(F)cc2)c(C(=O)O)cc1OC | 14 | 3 | -21 | · | -4 | 2 | 5 | i
Cc1c(CCC(=O)O)c(=O)n2c([nH]c3ccccc32)c1C#N | -1 | 12 | -15 | -13 | 20 | 3 | 7 | ?
Cc1ccc(C(CNC(=O)Nc2ccccc2)N2CCN(C)CC2)cc1 (stereo unspecified) | 5 | -9 | 3 | -13 | 6 | -1 | 1 | i
CCOC(=O)c1c(-c2ccccc2)oc2ccc(OC)cc12 | 11 | 7 | -19 | · | 6 | 3 | 0 | i
CCCCCOc1ccc(N2C(=O)C3C4C=CC(C3C2=O)N(C)C4=O)cc1 (stereo unspecified) | 40 | -3 | 22 | -8 | 3 | 3 | 2 | i
Cc1cccc(C)c1NC(=O)CCCSc1nnc(-c2ccc(Cl)cc2)n1-c1ccccc1 | 15 | -10 | · | 79* | -7 | 0 | -17 | i
COc1cccc(-c2c[nH]c(=O)[nH]c2=O)c1 | -11 | -5 | -8 | -75 | -2 | 0 | 0 | i
FC(F)(F)c1cccc(N2CCN(C(=S)NC3CCCCC3)CC2)c1 | 23 | -4 | · | 0 | 2 | -5 | -16 | i
Cc1cc(NS(=O)(=O)c2ccc(CC(C)C)cc2)no1 | 4 | -8 | -10 | -11 | 10 | 4 | 2 | i
O=C(NCC1(N2CCCCC2)CCCCC1)c1ccc(NS(=O)(=O)c2ccc(F)cc2)cc1 | -3 | · | · | -2 | · | -1 | 3 | i

Carrying on.
SMILES | CSC inhib | eIF4H inh | Yeast UUG start | Env fusion inh | PABP FP inh | MT1-MMP act inh | MT1-MMP act inh RFP | Rce1 inhib
COc1ccc(CN(C)C(=O)c2ccc(NS(=O)(=O)c3ccc(F)cc3)cc2)c(OC)c1OC | 2 | -7 | -10 | · | 2 | 2 | -9 | i
O=C1N=C(N2CCCCC2)SC1=C1CCCC1 | 0 | -9 | -8 | -129 | 5 | -2 | 3 | i
CCCOc1ccc(/C=N/NC(=O)c2nnn(-c3nonc3N)c2-c2cccs2)cc1OC | 3 | -9 | -9 | -2 | 1 | -2 | -4 | i
Cc1cccc(-c2cc3nc(-c4ccccc4)cc(N4CCC5(CC4)OCCO5)n3n2)c1 | 61 | -4 | 5 | · | 8 | -8 | -7 | +
C[C@H](CO)N1C[C@H](C)[C@H](CN(C)C(=O)c2ccccc2F)Oc2ncc(Br)cc2C1=O | · | · | 2&-11&-20 | -11 | · | 3 | 4 | ·
CC(C)c1ccc(S(=O)(=O)c2n[nH]n3c2nc(=O)c2ccccc23)cc1 | 19 | 10 | -2 | · | 2 | 3 | 0 | i
CCOC(=O)c1cc2c(=O)n3cccc(C)c3nc2n(CCCOC)c1=NC(=O)c1cccnc1 | -17 | 2 | -6 | -15 | 2 | 2 | -2 | i
COc1ccc(CCNC(=O)c2sc3ccccc3c2Cl)cc1OC | 0 | -2 | 4 | 7 | -6 | 2 | 3 | i
CCc1nc2ccccc2n1Cc1ccccc1F | -6 | -12 | · | 5 | -5 | 2 | 1 | i
CC(=O)N1CCN(c2ccc(Nc3nc(C)nc4c3oc3ccccc34)cc2)CC1 | 18 | · | -6 | · | · | -1 | -14 | i
COc1ccccc1CN1CCc2c([nH]c3ccccc23)C1 | 9 | -10 | -7 | 12 | 6 | -4 | 1 | i
COc1cccc(Nc2nnc(SCC(=O)Nc3sccc3C(N)=O)s2)c1 | 2 | 18 | · | 15 | 8 | -5 | -20 | i
Cc1cc(Br)cc(C)c1NC(=O)c1ccc(C#N)cc1F | 4 | 6 | · | -20 | -5 | -2 | -6 | i
NC(=O)c1ccsc1NC(=O)c1ccc(S(=O)(=O)N2CCCC2)cc1 | 1 | 9 | -11 | -5 | 8 | 6 | -5 | i
Cc1cc(OCC(=O)Nc2nnc(C3CC3)s2)ccc1[N+](=O)[O-] | -7 | 7 | -16 | -6 | 1 | 3 | 5 | i
CN1N=C(C(=O)N2CCN(c3ccc([N+](=O)[O-])cc3)CC2)CCC1=O | -7 | -32 | · | 13 | -4 | 2 | 5 | i
Cc1ccc(S(=O)(=O)Cc2c(C)noc2C)cc1 | -5 | 8 | -11 | · | 6 | -2 | 0 | i
O=C(OCC(=O)N1CCN(C(=O)c2ccco2)CC1)c1sc2cc(F)ccc2c1Cl | 5 | 1 | -2 | -5 | 9 | -3 | 3 | ·
Cc1ccc(S(=O)(=O)N2CCOCC2)cc1NC(=O)CSc1nccn1C | -11 | -4 | · | -3 | 0 | 4 | 5 | i
COc1cc(/C=N/NC(=O)C23CC4CC(CC(C4)C2)C3)cc(Br)c1O | 0 | -4 | -8 | -62 | 10 | -2 | 1 | i
O=S(=O)(Nc1nccs1)c1cnc(Cl)c(Br)c1 | -11 | 3 | 6 | 25 | 7 | 2 | 4 | i
O=C(NNC(=O)c1ccc(NC(=O)c2ccccc2)cc1)c1ccccc1 | -9 | -24 | · | 8 | 2 | 3 | 2 | i
O=C(NCCCN1CCCC1)c1ccc(CSCc2cccc(Cl)c2)o1 | · | -8 | -16 | · | -6 | -4 | -7 | i
COc1ccc(C(=O)Nc2cc([N+](=O)[O-])ccc2N2CCN(C)CC2)cc1 | -11 | -14 | · | -22 | 1 | -2 | 0 | i
COc1ccc(CNC(=O)CC2C[C@H](C(=O)N(C(C)C)C(C)C)[C@@]3(C)c4[nH]c5ccccc5c4CCN3C2=O)cc1OC (stereo partly specified) | -19 | · | 35 | -35 | · | -3 | -4 | ·

Next part.
SMILES | CSC inhib | eIF4H inh | Yeast UUG start | Env fusion inh | PABP FP inh | MT1-MMP act inh | MT1-MMP act inh RFP | Rce1 inhib
COc1ccc(N2CCN(C(=O)[C@@H](NC(=O)c3ccccc3Cl)C(C)C)CC2)cc1 | -11 | 5 | 4 | 12 | 0 | -1 | -4 | i
CC(C)(C)C(=O)NNC(=O)c1cc2sccc2s1 | 5 | 1 | · | -9 | -4 | 3 | 3 | i
O=C(NCCN1CCCCC1)/C(=N\O)c1ccccc1 | · | 2 | -13 | -25 | 4 | 2 | 2 | ·
O=[N+]([O-])c1cn(Cc2ccc(Cl)cc2)cn1 | -8 | -10 | · | · | -4 | -7 | -4 | i
COc1ccc(S(=O)(=O)N(C)CC(=O)Nc2ccc3c(c2)OCO3)cc1OC | -2 | -2 | · | · | 5 | 6 | 6 | i
O=C1NCCN(CC2CCN(CC3CCCC3)CC2)C1=O | · | · | -6 | -41 | · | -1 | 1 | ·
CCCCCCc1ccc(OCC(=O)O)cc1OCC(=O)O | 10 | 0 | · | -28 | 11 | 5 | -2 | i
C[C@@H]1CN([C@@H](C)CO)S(=O)(=O)c2ccc(Br)cc2O[C@H]1CN(C)Cc1ccncc1 | · | · | -9&1 | 19 | · | -5 | -2 | ·
COc1ccc(CC(=O)NCCS(=O)(=O)N2CCN(c3ccccc3OC)CC2)cc1 | 2 | · | -6 | 3 | · | 5 | -7 | i
CCOC(=O)NC(=O)/C(C#N)=N/Nc1c(F)cccc1F | 3 | -1 | · | · | 15 | 1 | 4 | i
O=C(CSc1nnc(-c2cccnc2)n1Cc1ccco1)c1ccc(Cl)cc1 | 10 | -2 | 3 | -99 | -7 | -2 | -4 | i
COc1ccc(CCNC(=O)c2nn(C)cc2Cl)cc1 | 4 | 0 | -7 | · | -3 | 4 | -3 | i
Cc1ccc(NC(=O)COCC(=O)Nc2ccc(C)cc2)cc1 | -11 | 2 | -12 | -17 | 12 | 0 | 0 | i
Cc1ccc(S(=O)(=O)N/N=C/c2cnn(C)c2C)cc1 | -5 | -9 | 2 | · | -1 | 5 | 8 | i
COc1cc2c(cc1OC)C(COc1ccc([N+](=O)[O-])cc1)NCC2 (stereo unspecified) | 0 | 7 | 0 | -10 | 1 | -10 | 0 | i
CSc1nc(Cl)c(Cc2ccc(OC(C)C)cc2)c(N(C)C)n1 | 23 | -14 | · | · | -15 | -11 | -27 | i
Cc1nn(-c2ccccc2)c(N)c1C(O)(C(F)(F)F)C(F)(F)F | -12 | 4 | · | -2 | -3 | -3 | -4 | i
Cc1cc(C(=O)COC(=O)C23CC4CC(CC(O)(C4)C2)C3)c(C)n1C | -8 | · | · | -1 | · | 1 | 4 | ·
COC(=O)CCC(=O)OC1(C)C(=O)C=C2C=C(C3CC3)N(Cc3ccccc3)C=C2C1=O (stereo unspecified) | -13 | 1 | 8 | -4 | 18 | 2 | 5 | i
C/C(N)=C(/C#N)C(=O)CSc1nnc(Nc2ccccc2C)s1 | -10 | -6 | · | · | 6 | 0 | -2 | i
CCOC(=O)C1CCCN(S(=O)(=O)c2ccc3ccccc3c2)C1 (stereo unspecified) | 1 | -6 | -13 | · | 8 | 0 | -3 | i
CCCNC(=O)COc1ccc(-c2nn(C)c(=O)c3ccccc23)cc1 | -12 | -4 | -1 | 5 | -14 | 0 | -9 | i
